Screening results as filed in PubChem BioAssay.
TAR Tat displ – TAR RNA-Tat peptide displacers, HIV-1, primary screen, biochemical, FRET, FAM/TAMRA-labeled Tat; HIV-1 TAR RNA, Tat peptide displacement FRET; active compounds read high; z-score (test concentration not listed); hit rate 0.6% among 100,000; AID 1259389, 2018;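 also: score is relative to mean and SD of negative controls; some compounds called inactive have numbers as strong as hits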
CDC25B CDK2 inh – primary biochemical HTRF screen for blockers of M-phase inducer phosphatase 2 binding to CDK2/cyclin A; HTRF CDC25B-CDK2/CyclinA binding, anti-His/anti-Flag; active compounds read high; AID 1259370, 2018; z-score (concentration not given with the values); hit rate 0.72% among 94,000; P30305+P24941;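 also: score is relative to mean and SD of negative controls; strong numbers were not always called active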
* = called active by the depositor.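 The calls were made as follows: active = z-score from 3 up in half or more of its runs; inactive = the rest.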

For CCOC(=O)CNC(=O)Nc1c(C)nc2nc[nH]n2c1=O the results were TAR Tat displ 1.8 and CDC25B CDK2 inh -2.2.
`CCCC(=O)OC1=C(C(=O)OC)N(C(C)C)S(=O)(=O)c2ccccc21` gave TAR Tat displ -0.27 and CDC25B CDK2 inh -1.1.
O=C(CSc1nc2ccccc2s1)N1CCCc2ccccc21 was read as CDC25B CDK2 inh -2.4.
Screening CCCc1nc2nc(C)cc(Nc3ccc(C)c(Cl)c3)n2n1 returned TAR Tat displ -0.05 and CDC25B CDK2 inh -0.99.
`Cc1ccc(-n2c(C)c3c(C)nnc(C)c3c2C)cc1C` gave CDC25B CDK2 inh -1.6.
For CCOc1ccccc1-n1c(=S)sc2c(=O)[nH]c(SCC(=O)N(CC)CC)nc21 the results were TAR Tat displ 1.6 and CDC25B CDK2 inh -0.85.
Screening c1ccc2oc(NC3=NCN(CC4CCCO4)CN3)nc2c1 (stereo unspecified) returned TAR Tat displ 0.53 and CDC25B CDK2 inh -1.1.
Screening O=C(CSc1nc(-c2ccccc2)nc2cc(=O)[nH]n12)Nc1cc(F)ccc1F returned TAR Tat displ -0.64.
Screening CCCN(CCC)CCCNc1ncnc2onc(C)c12 returned TAR Tat displ 1.2.
Screening Cc1cc2n(n1)CCC(=O)N2CCCC(=O)NCCc1cccs1 returned TAR Tat displ 2.
`O=C(NCc1ccco1)Nc1ccc2c(c1)CCN2S(=O)(=O)c1ccccc1` gave TAR Tat displ 1.1.
`CC(C)OCCCNC(=O)C1(C)CCC(=O)N1Cc1ccc2c(c1)OCO2` (stereo unspecified) gave TAR Tat displ 2.5.
`COC(=O)C1=C(N)Oc2cc(C)oc(=O)c2C1c1cccnc1` (stereo unspecified) gave CDC25B CDK2 inh 1.3.
`CCOc1ccc(C2CC(c3ccc4ccccc4c3O)=NN2)cc1` (stereo unspecified) gave CDC25B CDK2 inh -1.2.
For O=C(NCc1csc(-c2ccccc2)n1)[C@H]1CSCN1C(=O)c1ccccc1Br the results were TAR Tat displ 1.1.
O=S(=O)(NCc1cn2ccccc2n1)c1ccc2c(c1)OCCO2 was read as CDC25B CDK2 inh -1.9.
Cc1ccc(C2Nn3c(C)nnc3SC2C(=O)N2CCOCC2)cc1 (stereo unspecified) was read as TAR Tat displ 0.38 and CDC25B CDK2 inh -2.3.
Cc1cccc(CCn2c(=O)c3ccccc3n(Cc3cc(=O)n4ccccc4n3)c2=O)c1 was read as TAR Tat displ -1.1 and CDC25B CDK2 inh -0.89.
`Cc1ncc2c(N)ncnc2n1` gave CDC25B CDK2 inh -1.4.
Screening COC(=O)c1sccc1N/C=C(\C#N)C(=O)c1ccccc1 returned CDC25B CDK2 inh -1.6.
For Cc1cccc2nc(CN(C3=NC4CS(=O)(=O)CC4S3)c3ccc(C(C)C)cc3)cc(=O)n12 (stereo unspecified) the results were TAR Tat displ 0.11 and CDC25B CDK2 inh -0.68.
For c1ccc(CSc2nnc(-c3cccnc3)o2)cc1 the results were TAR Tat displ 1.1.
For CS(=O)(=O)c1nc(S(=O)(=O)c2ccc(Cl)cc2)c(NCc2ccco2)s1 the results were TAR Tat displ 1.2 and CDC25B CDK2 inh -0.14.
For O=c1cc(N2CCCCC2)nc2scc(-c3ccc(Cl)cc3)n12 the results were TAR Tat displ -1.6 and CDC25B CDK2 inh -2.1.
Screening CCOC(=O)N1CCC(NS(=O)(=O)c2ccc3oc(=O)c4ncn(CC)c4c3c2)CC1 returned TAR Tat displ 1.2 and CDC25B CDK2 inh -0.87.
`COc1ccc(C2=Nn3c(nnc3-c3ccccc3)SC2C)cc1` (stereo unspecified) gave TAR Tat displ 1.5.
CCc1nnc2sc(-c3ccc(OC)cc3)nn12 was read as TAR Tat displ 1.5 and CDC25B CDK2 inh -0.18.
`O=C(CSc1nnc2scc(-c3ccccc3)n12)N1CCOCC1` gave TAR Tat displ 0.4 and CDC25B CDK2 inh 1.
For CC(C)C1Cc2c(sc3nc(SCC(=O)Nc4ccccc4)nc(N)c23)CO1 (stereo unspecified) the results were CDC25B CDK2 inh -2.1.
Screening Clc1cccc(Cl)c1-c1noc(CN2CCCCC2)n1 returned CDC25B CDK2 inh -1.7.
`CN1CCN(C(=O)Oc2ccccc2)CC1` gave CDC25B CDK2 inh -2.1.
For Cc1ccc(C)n1-c1nnc(N2CCC(C(=O)NCCC(C)C)CC2)s1 the results were TAR Tat displ 0.85 and CDC25B CDK2 inh -0.55.
CCCC12CN3CC(C)(CN(C1)C3c1ccccc1)C2=O (stereo unspecified) was read as CDC25B CDK2 inh -1.8.
CN(C)CCOC(=O)CCN1C(=O)/C(=C2/SC(=S)N(CCC(=O)OCCN(C)C)C2=O)SC1=S was read as CDC25B CDK2 inh -0.85.
O=C(OCc1cc(=O)n2nc(-c3cccs3)sc2n1)c1cccc(F)c1 was read as TAR Tat displ 1.6.
For Cc1ccc(C(=O)Nc2ccc(Oc3cccc(C(F)(F)F)c3)nc2)cc1 the results were CDC25B CDK2 inh -0.14.
For COC(=O)c1cc(S(=O)(=O)N2CCN(c3ccc(OC)cc3)CC2)c[nH]1 the results were TAR Tat displ 2.3.
CCc1ccc2occ(CC(=O)Nc3sc4c(c3C(=O)NCC3CCCO3)CCC4)c2c1 (stereo unspecified) was read as TAR Tat displ 1.4 and CDC25B CDK2 inh 0.21.
For C=CCn1c(=O)sc2cc(NC(=O)Cc3ccc(F)cc3)ccc21 the results were TAR Tat displ -0.28.
`O=C(CSc1cn(CC(=O)N2CCCC2)c2ccccc12)Nc1ccc(F)cc1F` gave TAR Tat displ -2.8.
O=S(=O)(Nc1ccc(-c2cn3ccsc3n2)cc1)c1cccnc1 was read as TAR Tat displ -0.18.
O=S(=O)(c1ccc2ccccc2c1)N1CCN(Cc2cc(Br)ccc2O)CC1 was read as TAR Tat displ 0.8 and CDC25B CDK2 inh -1.5.
Screening CCN1CCN(C(=O)Cn2c(=O)oc3ccccc32)CC1 returned TAR Tat displ 2.2.
`O=C(c1sc2ncccc2c1-n1cccc1)N1CCCCC1` gave TAR Tat displ 0.15.
`CCOCCCN1C(=O)CSc2c(c3ccccc3n2C)C1C(=O)NCCC(C)C` (stereo unspecified) gave TAR Tat displ 0.7.
`Cc1c(C(=O)NCc2cccnc2)oc2ccc3c(c12)C(O)CC1(CCCCC1)O3` (stereo unspecified) gave TAR Tat displ 0.68.
Cc1csc2c(NC3CCN(Cc4ccccc4)CC3)ncnc12 was read as CDC25B CDK2 inh 1.2.
Screening C=CCNC(=O)c1cc(-c2ccccn2)nc2ccccc12 returned TAR Tat displ -0.46.
Cc1c(C(=O)N(Cc2cccc(F)c2)C2CCS(=O)(=O)C2)oc2ccc(Br)cc12 (stereo unspecified) was read as TAR Tat displ -0.1 and CDC25B CDK2 inh -1.7.
For O=[N+]([O-])c1ccccc1C(O)CO (stereo unspecified) the results were CDC25B CDK2 inh 1.1.
`NC(=O)c1c(NC(=O)CCCSc2ccc(F)cc2)sc2c1CCC2` gave TAR Tat displ 0.05.
For Cc1nc(-c2csc(S(=O)(=O)Nc3ccc(-c4ccno4)cc3)c2)no1 the results were TAR Tat displ 1.8.
For CCCSc1nc2c(c(=O)[nH]1)C(c1cc(F)cc(F)c1)CC(=O)N2 (stereo unspecified) the results were TAR Tat displ 2 and CDC25B CDK2 inh -0.87.
Screening Cc1onc(-c2c(Cl)cccc2Cl)c1C(=O)NCc1ccc2c(c1)CCO2 returned CDC25B CDK2 inh -2.1.
Screening O=[N+]([O-])c1ccc(OS(=O)(=O)c2cccc3nsnc23)cc1 returned CDC25B CDK2 inh 0.87.
Screening O=S(=O)(Nc1cccc(-c2nnc(-c3ccccc3)o2)c1)c1cccc2nsnc12 returned TAR Tat displ -1.2.
`Cc1cc(=O)oc(C)c1C(=O)NCCCN1CCOCC1` gave CDC25B CDK2 inh -1.1.
Screening Cc1ccc(-c2n[nH]c(=O)c3ccccc23)cc1S(=O)(=O)N1CCOCC1 returned TAR Tat displ 0.22 and CDC25B CDK2 inh -1.8.
For Cc1ccc(CN2CCC(CNc3ncnc4onc(C(=O)O)c34)C2)cc1 (stereo unspecified) the results were TAR Tat displ 0.59 and CDC25B CDK2 inh -0.16.
Screening COc1ccc(C2=Nc3ccc(OC)cc3NC(c3cccs3)=N2)cc1 returned TAR Tat displ 1.2 and CDC25B CDK2 inh -1.2.
Cc1nn(CC(=O)NCc2cccs2)c(=O)c2c(-n3cccc3)n(-c3ccc(Cl)cc3)nc12 was read as TAR Tat displ 0.62.
Screening CCn1cc2c(c1-c1ccc(C)cc1)c(=O)n(C)c(=O)n2C returned TAR Tat displ 0.13 and CDC25B CDK2 inh -2.
For COc1ccc(-c2nc(N3CCCC3)c3ccccc3n2)cc1 the results were TAR Tat displ 0.79.
`CCOc1c(Nc2ccc(F)cc2)c(=O)c1=O` gave TAR Tat displ -0.15.
`O=C1Nc2ccccc2C1Cc1cccs1` (stereo unspecified) gave TAR Tat displ 0.39 and CDC25B CDK2 inh 1.
CN(C(=O)c1cc2c(s1)-c1ccccc1OC2)c1ccc(F)cc1 was read as TAR Tat displ 1.1 and CDC25B CDK2 inh -0.53.
Screening CC(=O)N1C(=O)N(C(C)=O)C(O)C1O (stereo unspecified) returned TAR Tat displ 1.5 and CDC25B CDK2 inh -0.11.
`Brc1ccc(C(c2nnc(-c3ccccc3)o2)N2CCN(c3ccccn3)CC2)cc1` (stereo unspecified) gave TAR Tat displ -0.99 and CDC25B CDK2 inh 0.
For O=C(NCc1c(Cl)cccc1Oc1ccccc1)Nc1ccc(F)cc1 the results were CDC25B CDK2 inh 0.22.
`COc1ccc(-c2noc(/C=C/c3ccccc3)n2)cc1` gave CDC25B CDK2 inh -2.7.
Screening CSc1ccc(C2CC(=O)Nc3c(-c4ccc(Cl)cc4)csc32)cc1 (stereo unspecified) returned TAR Tat displ 2.6.
For Cc1csc(NC(=O)C2CCN(S(=O)(=O)c3cc(C(=O)N4CCCCC4)cs3)CC2)n1 the results were TAR Tat displ 2.3.
CC1CCN([C@H]2CS(=O)(=O)C[C@@H]2S(=O)(=O)c2cccs2)CC1 was read as TAR Tat displ -0.38 and CDC25B CDK2 inh -1.1.
`CC(c1ccccc1)n1c(SCC(=O)c2csc3ccccc23)n[nH]c1=O` (stereo unspecified) gave CDC25B CDK2 inh -2.5.
Screening CC1=C(c2ccccc2)S(=O)(=O)N=C1Nc1ccc(C(C)C)cc1 returned TAR Tat displ -0.98 and CDC25B CDK2 inh -1.6.
Cc1ccc(S(=O)(=O)c2cnc3ccc(C)cc3c2N2CCCC2)cc1 was read as TAR Tat displ -0.16 and CDC25B CDK2 inh -2.2.
Screening CCN(CC)S(=O)(=O)N1CCC(C(=O)Nc2ccc3c(c2)C(=O)N(C)C2=NCCN23)CC1 returned TAR Tat displ 1.1.
Screening COc1cc(OC)cc(-c2nnc(Cc3c(F)cccc3Cl)o2)c1 returned TAR Tat displ -0.71 and CDC25B CDK2 inh 0.11.
`O=C(NCCCN1CCN(c2cccc(Cl)c2)CC1)Nc1ccc(Cl)cc1` gave CDC25B CDK2 inh -1.9.
`O=C1NC2(CCCC2)N=C1c1ccc(F)cc1` gave CDC25B CDK2 inh -0.16.
`Cc1ccc(NS(=O)(=O)c2ccc3c(c2)N(C)CCO3)c(Br)c1` gave TAR Tat displ 2.
`Cc1cc(-c2ccc(C(C)C)c(S(=O)(=O)Nc3cccnc3)c2)on1` gave TAR Tat displ 0.02.
`COc1ccc(C2CC(=O)N3CN(C(C)c4ccccc4)CSC3=C2C#N)cc1` (stereo unspecified) gave TAR Tat displ -1.9 and CDC25B CDK2 inh 5.3*.
`CCOC(=O)c1c(/N=C/c2cc(Cl)cc(Cl)c2O)sc2c1CCC2` gave CDC25B CDK2 inh -2.
For O=C(CSc1nnc2scc(-c3ccccc3)n12)NCc1ccc2c(c1)OCO2 the results were TAR Tat displ 0.05 and CDC25B CDK2 inh -0.2.
`CCN(CC)C(=O)C1CCN(S(=O)(=O)c2c(C)noc2/C=C/c2ccco2)CC1` gave TAR Tat displ 0.09.
For Clc1ccc(-c2csc3ncnc(-n4ccnc4)c23)cc1 the results were CDC25B CDK2 inh 0.41.
Screening COc1cc(OC)c(NC(=O)Cn2ncc3c4ccccc4n(C)c3c2=O)cc1Cl returned TAR Tat displ -0.09 and CDC25B CDK2 inh -0.02.
`COc1ccc(Oc2coc3cc(OCc4ccc(C)cc4)ccc3c2=O)cc1` gave TAR Tat displ -2.4 and CDC25B CDK2 inh -1.3.

Gathered by group: the entries above containing an aryl methoxy group
`COc1ccc(C2=Nn3c(nnc3-c3ccccc3)SC2C)cc1` (stereo unspecified) gave TAR Tat displ 1.5.
CCc1nnc2sc(-c3ccc(OC)cc3)nn12 was read as TAR Tat displ 1.5 and CDC25B CDK2 inh -0.18.
For COC(=O)c1cc(S(=O)(=O)N2CCN(c3ccc(OC)cc3)CC2)c[nH]1 the results were TAR Tat displ 2.3.
Screening COc1ccc(C2=Nc3ccc(OC)cc3NC(c3cccs3)=N2)cc1 returned TAR Tat displ 1.2 and CDC25B CDK2 inh -1.2.
For COc1ccc(-c2nc(N3CCCC3)c3ccccc3n2)cc1 the results were TAR Tat displ 0.79.
`COc1ccc(-c2noc(/C=C/c3ccccc3)n2)cc1` gave CDC25B CDK2 inh -2.7.
Screening COc1cc(OC)cc(-c2nnc(Cc3c(F)cccc3Cl)o2)c1 returned TAR Tat displ -0.71 and CDC25B CDK2 inh 0.11.
`COc1ccc(C2CC(=O)N3CN(C(C)c4ccccc4)CSC3=C2C#N)cc1` (stereo unspecified) gave TAR Tat displ -1.9 and CDC25B CDK2 inh 5.3*.
Screening COc1cc(OC)c(NC(=O)Cn2ncc3c4ccccc4n(C)c3c2=O)cc1Cl returned TAR Tat displ -0.09 and CDC25B CDK2 inh -0.02.
`COc1ccc(Oc2coc3cc(OCc4ccc(C)cc4)ccc3c2=O)cc1` gave TAR Tat displ -2.4 and CDC25B CDK2 inh -1.3.

This is a random part of the collection; any-hit rate near 0.89%.
